ClpP mod – qHTS Assay for Activators of ClpP; AID 651965, 2013; 1.9% of 340,000 active; ATP-dependent Clp protease proteolytic subunit (Bacillus subtilis (strain 168)), P80244; purified B. subtilis ClpP, FRET peptide cleavage, 20 min; Potency, µM (series often up to 57.5 µM), without a hit: at the highest dose activity change, negative = active; active = well fitted falling curve with a large enough effect; inconclusive = small, poorly fitted or top-dose-only effect; inactive = no such curve, though single readings can be large or run the other way; note: potency is the fitted concentration of half-maximal effect; the source files actives as falling curves though it sought activators and does not explain the sign; nearly all actives have a fitted effect of over 65% in size; many hits overshoot -100%
Target sequence (P80244 whole entry, looked up): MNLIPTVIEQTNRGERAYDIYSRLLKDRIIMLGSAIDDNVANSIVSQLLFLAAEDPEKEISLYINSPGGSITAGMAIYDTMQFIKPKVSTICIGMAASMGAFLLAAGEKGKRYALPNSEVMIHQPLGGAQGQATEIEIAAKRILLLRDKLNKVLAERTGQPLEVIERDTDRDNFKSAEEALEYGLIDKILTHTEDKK
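Purified B. subtilis ClpP, 10 microg/mL final in Tris/HCl pH8 with KCl, BSA, glycerol and Tween-20, cleaved an Abz/nitrotyrosine-quenched decapeptide. Fluorescence (ex 320, em 430) was read at 0 and 20 min at room temperature. Delta was normalized to 5.8 microM ADEP and DMSO/no-enzyme controls.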
D2 PAM – human D2 receptor positive allosteric modulation; P14416; DiscoveRx D2 beta-arrestin cells, luminescence, 90 min; 100% = 57 uM dopamine signal; potentiation, % (test concentration not listed); 0.23% of 360,000 active; AID 624464; active = potentiation of 50% or more; inconclusive = 30% to 50%; inactive = 30% or less;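 note: compound concentration not given in the record; tested on top of an EC20 dose of dopamine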
Target sequence (P14416 whole entry, looked up): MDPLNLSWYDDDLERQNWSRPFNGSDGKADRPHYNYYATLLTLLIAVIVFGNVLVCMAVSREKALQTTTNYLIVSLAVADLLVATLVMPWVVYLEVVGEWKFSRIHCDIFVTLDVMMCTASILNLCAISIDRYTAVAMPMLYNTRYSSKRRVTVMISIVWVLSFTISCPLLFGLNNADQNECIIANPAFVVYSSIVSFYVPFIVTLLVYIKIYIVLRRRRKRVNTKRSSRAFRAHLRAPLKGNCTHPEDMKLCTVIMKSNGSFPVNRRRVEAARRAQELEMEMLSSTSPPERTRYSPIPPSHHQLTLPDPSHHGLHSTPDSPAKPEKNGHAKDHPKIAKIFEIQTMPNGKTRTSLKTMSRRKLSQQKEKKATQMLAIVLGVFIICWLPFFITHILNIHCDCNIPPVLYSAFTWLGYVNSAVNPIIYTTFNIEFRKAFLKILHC
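D2 cells co-treated with compound plus 50 nM dopamine (EC20) for 90 min at 37 deg C to detect potentiation. Beta-arrestin recruitment was read as enzyme-fragment luminescence after 1 h at ambient temperature. Full response was set by 57 uM dopamine.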
An asterisk follows results filed as active; ? = inconclusive. Only part of the results is shown; rates above refer to the full screens.

SMILES	D2 PAM	ClpP mod
Cc1nc(C(F)(F)F)ccc1C(=O)N1CCC1(C)C(=O)NS(=O)(=O)c1c(C)noc1C (centres undefined)	0	0.4%
CC(C)NC(=O)C1(C)CCN1C(=O)c1ccc(F)c(Cl)c1 (centres undefined)	-11	1.4%
CCOc1ccc(Cl)cc1-c1cc(C(=O)NCc2ccccc2OC)[nH]n1	-5	-11%
CCCNC(=O)C1(C)CCN(C(=O)c2ccc3ccccc3c2)C1 (centres undefined)	-11	-2.2%
O=C(C=Cc1ccccc1F)c1ccccc1	-3	0.8%
CC(=O)Nc1ccc(NCCc2ccco2)cc1	-2	-0.8%
CCc1nc2c(OCCc3cccc(OC)c3)cccn2c1N(C)C(=O)c1ccc(C)cc1	-11	-1.3%
CC(=O)NC(c1cccc(F)c1)c1nc(-c2cnc3ccccc3c2)cs1 (centres undefined)	-4	?
CC(=O)Nc1ccc(NC(=O)C2Cc3c(-c4cccc(C(C)=O)c4)ccnc3O2)cc1 (centres undefined)	-21	0.8%
CCNC(=O)N(C)[C@H]1C[C@H]2c3[nH]c4ccccc4c3CCN2C[C@H]1[C@H](C)O	-5	-19%
CC(C)Oc1cc(F)ccc1-c1cc(C(=O)NCCc2ccncc2)[nH]n1	-14	-0.3%
CCC(CO)Nc1ccn2nc(-c3cc(OC)c(OC)c(OC)c3)cc2n1 (centres undefined)	5	4.5%
OC(c1ccccc1)c1nc(/C=C/c2ccc(C(F)(F)F)cc2)cs1 (centres undefined)	-11	?
CC(=O)c1ccc(Nc2nc(C(N)C3CCCCC3)cs2)cc1 (centres undefined)	-15	-8.2%
Cc1ccc(-c2c(C#N)c(N)n(-c3ccc(Cl)cc3)c(=O)c2C#N)cc1	-3	27%

A few values from the results shown.
Cc1nc(C(F)(F)F)ccc1C(=O)N1CCC1(C)C(=O)NS(=O)(=O)c1c(C)noc1C (centres undefined) – D2 PAM = 0
CCOc1ccc(Cl)cc1-c1cc(C(=O)NCc2ccccc2OC)[nH]n1 – D2 PAM = -5
CC(C)Oc1cc(F)ccc1-c1cc(C(=O)NCCc2ccncc2)[nH]n1 – ClpP mod = -0.3%
CC(=O)c1ccc(Nc2nc(C(N)C3CCCCC3)cs2)cc1 (centres undefined) – D2 PAM = -15
Cc1ccc(-c2c(C#N)c(N)n(-c3ccc(Cl)cc3)c(=O)c2C#N)cc1 – ClpP mod = 27%
CCNC(=O)N(C)[C@H]1C[C@H]2c3[nH]c4ccccc4c3CCN2C[C@H]1[C@H](C)O – D2 PAM = -5

Later entries.
SMILES	D2 PAM	ClpP mod
CC(=O)c1ccc(Nc2nc(CN)cs2)cc1	-10	-6.3%
CC1(C(=O)NCc2ccc3c(c2)OCO3)CCN1C(=O)Cc1cccc2ccccc12 (centres undefined)	-10	-2.0%
C[C@@H]1OC(C2CCCCC2)N(C)[C@H]2C[C@H]3c4[nH]c5ccccc5c4CCN3C[C@@H]12 (some centres undefined)	-11	-16%
O=C(Nc1ccc2nc(C(F)(F)F)[nH]c2c1)[C@@H]1O[C@H](CO)[C@@H](O)[C@H]1O	-5	-1.6%
COc1ccc(C(N)c2csc(Nc3ccc(C(F)(F)F)cn3)n2)cc1 (centres undefined)	-13	-6.4%
COc1ccccc1Cc1c(-c2ccc(Cl)cc2)nc2ccc(Cl)cn12	-5	?
CC(C)Oc1ccc(CN2CCC2(C)C(=O)Nc2ccc(Cl)c(Cl)c2)cc1 (centres undefined)	-8	-0.6%
O=C(Nc1c(-c2ccc(Cl)cc2)[nH][nH]c1=O)c1ccc(Br)cc1	-19	0.8%
COc1ccc(CNC(=O)Nc2nnc([C@@H]3C[C@H](O)[C@@H](CO)O3)s2)cc1	-3	-4.6%
CCc1nc2ccc(C(=O)N(CC)CCN(C)C)cn2c1N(C=O)CCC(C)C	-10	-0.7%
CC1(Cc2cc(Cl)ccc2C(F)(F)F)C(=O)Nc2ccc(-c3ccc(F)c(Cl)c3)cc21 (centres undefined)	-14	-4.4%
COC(=O)c1ccc2nc(-c3ccc(OC)c(OC)c3)c(Cc3ccccc3OC)n2c1	-2	4.7%
COc1ccc(OC)c(NC(=O)C2(C)CCN2C(=O)CC2CC2)c1 (centres undefined)	0	-2.5%
COc1ccccc1CNc1nc(NCc2ccc3occc3c2)c2sccc2n1	-12	?
CC(=O)Nc1ccc(-c2ccnc3c2CC(C(=O)Nc2ccc(Cl)c(C(F)(F)F)c2)O3)cc1 (centres undefined)	-21	4.4%

Looked up by structure from the entries so far, two records:
SMILES	D2 PAM	ClpP mod
CC(=O)Nc1ccc(-c2ccnc3c2CC(C(=O)Nc2ccc(Cl)c(C(F)(F)F)c2)O3)cc1 (centres undefined)	-21	4.4%
O=C(C=Cc1ccccc1F)c1ccccc1	-3	0.8%

The listing continues:
SMILES	D2 PAM	ClpP mod
O=C(Nc1cccc(Oc2ccccc2)c1)c1ccc(-n2cncn2)c2ccoc12	6	-9.5%
Cc1ccc(F)cc1C(=O)N1CCCCC1c1cc(C(=O)Nc2cccc(C#N)c2)no1 (centres undefined)	1	-2.0%
COc1ccc(-c2nc3c(C)cc(Br)cn3c2Cc2cccc(Cl)c2)cc1OC	-7	-8.9%
CCCS(=O)(=O)NC(=O)C1(C)CCCN(C(=O)c2cccc(Cl)c2)C1 (centres undefined)	-3	-1.0%
COc1c(C)cc(C(O)c2ncc(-c3ccccc3F)[nH]2)cc1C (centres undefined)	-3	0.3%
CC1(C(=O)NC2CCCC2)CCC(=O)N1C1CCN(Cc2ccccc2)CC1 (centres undefined)	-3	0.4%
CC(=O)Nc1ccc(NC(=O)C2(C)Cc3c(-c4ccccc4)ccnc3O2)cc1 (centres undefined)	-13	2.3%
CCC(=O)N1CCCC1(C)C(=O)Nc1cc(OC)ccc1OC (centres undefined)	-2	-1.1%
CC1(C(=O)Nc2ccc3c(c2)OCO3)CCN1C(=O)Cc1cc(F)ccc1F (centres undefined)	-5	-3.0%
CN(C)CCNc1nc(-c2ccccc2F)c2sccc2n1	-22	4.5%
COc1cccc(C(NC(C)=O)c2nc(-c3ccoc3)cs2)c1 (centres undefined)	-15	-1.6%
COc1cccc(CNc2nc3cc(-c4cccc(OC)c4)sc3c(=O)n2C)c1	-5	?
OCCNc1ncnc2c1ncn2[C@H]1CN(Cc2ccc3c(c2)OCO3)C[C@@H](CO)O1	-6	0.0%
Nc1nc(N)nc(-c2cccc([N+](=O)[O-])c2)n1	-6	-0.8%
CC1(C(=O)Nc2ccc3c(c2)OCCO3)CCC(=O)N1C1CC1 (centres undefined)	-4	-0.1%
COc1ccc(Cl)cc1-c1cc(C(=O)NCc2ccccc2)[nH]n1	-13	-11%
COc1ccccc1Cc1c(C2CCCCC2)nc2ccc(Br)cn12	-15	-1.9%
CCCNC(=O)C1(C)CCN(C(=O)c2ccc3snnc3c2)C1 (centres undefined)	-2	0.1%
CC(=O)OC[C@@H]1CN(Cc2ccccc2)C[C@H](n2cnc3c(Nc4ccccc4)ncnc32)O1	3	-20%
c1ccc(CNc2nc(NCc3cccs3)nc3ccsc23)cc1	-20	-8.5%
O=C(NCc1ccccc1Cl)c1csc([C@@H]2C[C@H](O)[C@@H](CO)O2)n1	-9	-1.5%
CC1=CNC(=O)CC(C)(C)C1	1	0.2%
CC(NC(=O)C1CCN(Cc2ccccc2)CC1)c1cccc2ccccc12 (centres undefined)	-13	0.2%
Cc1ccc2c(c1)C(=O)N1c3cc(C)c(C)cc3NC(=O)C1C(=O)N2 (centres undefined)	3	5.4%
CCCCN(C)C(=O)c1sc(=O)n(Cc2c(C)cccc2C)c1C	-6	0.0%
CCOC(=O)C1=CCN(S(=O)(=O)c2ccccc2F)C1c1cccc(Br)c1 (centres undefined)	-7	4.8%
CC(C)c1cccc(C(C)C)c1NC(=O)c1ccc(-c2cc(Cl)ccc2Cl)o1	-4	0.4%
CCCCNC(=O)C1(C)CCN1C(=O)c1sccc1C (centres undefined)	-4	0.4%
CCCCCCN1CCN(C2CN(Cc3ccccc3)S(=O)(=O)C2)CC1 (centres undefined)	-18	-1.7%
CCN(CC)C(=O)c1cccc(-c2csc(C(C)(O)c3cccc(OC)c3)n2)c1 (centres undefined)	0	1.7%
O=C(NCc1ccc(Cl)nc1)c1csc([C@@H]2C[C@H](O)[C@@H](CO)O2)n1	-10	0.3%
Cc1cccc(CNC(=O)c2sc(=O)n(Cc3ccccc3C)c2C)c1	-6	-1.3%
CSc1nc(COC(=O)NC(C)C)c(COC(=O)NC(C)C)n1Cc1ccccc1	2	1.1%
CCCCNC(=O)C1(C)CCC(=O)N1CCCn1ccnc1 (centres undefined)	0	0.0%
Cc1ccc(-c2nc3ccc(Br)cn3c2Cc2ccccc2)cc1	-4	-0.4%
CCc1nc2c(OCc3ccc(F)cc3)cccn2c1N(C)C(=O)c1ccco1	-18	0.1%
CC(=O)OC[C@@H]1CN(Cc2ccccc2)C[C@H](n2cnc3c(NCc4ccco4)ncnc32)O1	-10	-0.9%
CNC(=O)C1Cc2c(-c3cccc(F)c3)ccnc2O1 (centres undefined)	-9	-5.4%
COc1ccc(F)cc1-c1cc(NC(C)=O)c2ncc(-c3cccc(C(F)(F)F)c3)n2c1	0	?
COc1ccc(C(=O)N2CCC2(C)C(=O)NC(C)C)c(OC)c1 (centres undefined)	-3	2.5%
CCCNC(=O)c1cc(C2CCCCN2C(=O)OCCF)on1 (centres undefined)	-8	?
Fc1ccc(-c2nc3ccc(Br)cn3c2Cc2cccc(F)c2)cc1	-5	-1.6%
CC1=C(C(=O)N2CCCCCC2)CC(CC(=O)NC(c2ccccc2)c2ccccc2)C(=O)N1Cc1ccccc1 (centres undefined)	-1	-2.1%
CN(C)c1ccc(-c2ccnc3c2CC(C)(C(=O)NCc2ccc(F)c(F)c2)O3)cc1 (centres undefined)	-2	4.8%
CC1=C(C(=O)N2CCOCC2)CC(CC(=O)NCCc2ccccn2)C(=O)N1Cc1ccccc1 (centres undefined)	-6	-2.0%
CC(C)(C)CNC(=O)C1(C)CCN1C(=O)Cc1ccc(-c2ccccc2)cc1 (centres undefined)	3	-1.6%
CCC(C)CNC(=O)c1[nH]c(C(F)(F)F)nc1-c1ccccc1 (centres undefined)	-2	-3.2%
O=C(c1[nH]c(C(F)(F)F)nc1-c1ccccc1)N1CCN(c2ccccc2)CC1	-6	-0.8%
CCc1nc2c(OCc3ccc(Cl)cc3)cccn2c1N(C)C(=O)c1cccs1	-15	-0.2%
COc1ccc(C(C)(NC(C)=O)c2nc(-c3cncnc3)cs2)cc1 (centres undefined)	-9	0.9%
OC(c1ccc(F)c(F)c1)c1nc(-c2ccoc2)cs1 (centres undefined)	-19	-0.3%
CCc1nc2c(OCC(=O)N(C)C)cccn2c1N(C=O)Cc1ccc(OC)cc1	-4	-4.7%
CC1(C)N=C(N)NC(=NCCCOc2ccc([N+](=O)[O-])cc2)N1	-15	1.8%
COc1ccc(OCCNC(=O)c2ccc3nc(C)c(N(C)Cc4ccc(NC(C)=O)cc4)n3c2)cc1	2	0.1%
CNc1cncc(-c2ccccc2CO)n1	-12	4.5%
COc1cc(C=C2Cc3ccccc3C2=O)cc(OC)c1OC	11	-2.9%
CC1(Oc2ccc(CC#N)cc2)CCN(Cc2ccc(-n3ccnc3)cc2)C1 (centres undefined)	-15	-2.0%
CCc1nc2ccc(C(=O)NCCCn3ccnc3)cn2c1N(C)Cc1ccc(Cl)cc1	-7	-6.4%
CCc1nc2cc(NC(=O)C3(C)CCCN(C(C)C)C3)ccc2o1 (centres undefined)	-5	-0.4%
COc1ccc(-c2csc(C(C)(O)c3cccc(F)c3)n2)cn1 (centres undefined)	-9	-14%

(next part)
SMILES	D2 PAM	ClpP mod
CC1(C(=O)NS(=O)(=O)C2CC2)CCCN(C(=O)c2ccccc2C(F)(F)F)C1 (centres undefined)	-4	1.4%
Cc1ccc(S(=O)(=O)NC(=O)C2(C)CCN2C(=O)c2cccc(F)c2)cc1 (centres undefined)	1	-0.8%
CCc1nc2ccc(C(=O)N(C)CCCN(C)C)cn2c1N(CC)CCOC	-11	-1.4%
Cn1cc(CN2CCC(C(=O)NC(c3ccc(-c4ccccc4)cc3)c3cnccn3)CC2)c2ccccc21 (centres undefined)	-22	0.6%
CCOC1=C2[C@H](c3ccc(C)cc3)N(S(=O)(=O)c3ccc(C)cc3)C[C@H]2n2c(=O)n(-c3ccccc3)c(=O)n2C1	-1	0.0%
CCC(=O)N1CCCC(C(=O)Nc2ccc3cn[nH]c3c2)CC1 (centres undefined)	-6	4.3%
COc1ccc(NC(=O)C2(C)CCN2CCOc2ccc(C)cc2)cc1OC (centres undefined)	2	0.4%
COCCNC(=O)C1(C)CCCN(C(=O)c2ccc3ccccc3c2)C1 (centres undefined)	-15	0.4%
OCc1ccccc1-c1cnc2sc(NCc3ccc(F)cc3)nn12	-3	-0.4%
c1cc(-c2ccoc2)n2ccnc2c1	-5	4.7%
CCc1nc2ccc(C(=O)Nc3cccc(OC)c3)cn2c1N(C)CCCc1ccccc1	-1	-2.2%
COc1ccc(C(O)c2nc(-c3ccc(F)c(Cl)c3)cs2)cc1 (centres undefined)	-5	0.8%
